Screening results (PubChem BioAssay)
Hsc70 ATP site: small molecules displacing fluorescent ligand from Hsc70 – biochemical, fluorescence polarization, primary screen (AID 568); displacement, % at 20 µM; hits with a dose series show IC50 in µM; 83,000 tested, under 10 active; Hsc70 fluorescence polarization, probe displacement; higher % means a stronger effect; strong numbers were not always called active;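 active means displacement above 50% without optical interference and an IC50 on retest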;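 further: ATPase domain with a fluorescein-tagged ATP probe; 0% = vehicle and 100% = excess ADP; read after one hour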
MT1-MMP reporter: inhibitors of MT1-MMP promoter transcription, cell-based, luciferase reporter, luminescence (AID 618); MT1-MMP promoter luciferase reporter cells, luminescence; calls from a first round at 10 µM; hits with a dose series show EC50 in µM; 87,000 compounds, 0.62% hits;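 active means over half of the reporter light lost at 10 µM or EC50 under 50 µM; inactive means the rest and hits that failed the dose series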;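 further: actives suppress MT1-MMP promoter-driven transcription so potencies describe inhibitors; HT1080 fibrosarcoma cells; overnight exposure; toxic or luciferase-blocking compounds were not removed from the actives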
WNV NS2B-NS3 inh: blocks West Nile virus NS2B-NS3 protease activity; P06935; WNV NS2B-NS3 protease, fluorogenic substrate Ex360/Em465; active compounds read low; z-score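 (tested at a level between 10 and 100 µM)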; 65,000 compounds, 0.18% hits; AID 577;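 active means z-score at -3 or under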;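 further: score is relative to mean and spread of the compound wells of a plate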
Target sequence (P06935 1371-1501 limits assumed): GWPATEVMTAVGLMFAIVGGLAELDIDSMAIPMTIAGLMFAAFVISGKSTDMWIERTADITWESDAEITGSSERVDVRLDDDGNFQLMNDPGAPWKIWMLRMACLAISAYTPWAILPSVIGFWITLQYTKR
Target sequence (P06935 1502-1679 limits assumed): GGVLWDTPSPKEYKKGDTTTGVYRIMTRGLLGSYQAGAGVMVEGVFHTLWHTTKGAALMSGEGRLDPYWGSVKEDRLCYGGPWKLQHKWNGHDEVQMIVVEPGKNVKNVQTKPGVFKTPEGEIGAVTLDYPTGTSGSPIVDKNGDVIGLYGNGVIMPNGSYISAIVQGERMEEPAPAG
* marks the source's active call; other numbers are inactive results; i = inactive; . = no result given. Only part of the results is shown; rates above refer to the full screens.

SMILES | Hsc70 ATP site | MT1-MMP reporter | WNV NS2B-NS3 inh
Cc1ccc2occ(C(c3nnnn3Cc3ccccc3)N3CCOCC3)c(=O)c2c1 (stereo unspecified) | 4.8% | i | -0.09
COc1ccc(-c2nn(CC(=O)N(C)C)c(=O)c3ccccc23)cc1 | 2.6% | i | -0.88
O=C(Nc1ccccc1C(=O)N1CCOCC1)C1CCCO1 (stereo unspecified) | -4.4% | i | 0.5
Cn1c(=O)[nH]c(=O)c2c1nc(N1CCCCC1)n2CCOc1ccccc1 | 6.0% | i | 0.73
CSc1ccccc1C(=O)NCc1ccc(S(N)(=O)=O)cc1 | 0.5% | i | .
CCCc1cc(C(=O)N2CCN(S(=O)(=O)c3ccc(OC)c(OC)c3)CC2)cs1 | 5.0% | i | 0.37
Cc1cc2cc(CNS(=O)(=O)N(C)C)ccc2[nH]1 | 1.2% | i | 0.7
CCOc1ccc(NC(=O)CSc2nc3ccccc3c(=O)n2CCNC(C)=O)cc1 | -4.0% | i | -0.18
O=C(CSc1nnc(-c2ccncc2)n1-c1ccccc1)N1CCN(c2ccc(Cl)cc2)CC1 | -1.3% | i | .
COc1ccc(NC(=O)C2CCN(S(C)(=O)=O)CC2)cc1Cl | 1.6% | i | .
COc1ccc(CCNC(=O)CSc2nnc(-c3ccccc3)o2)cc1OC | -2.4% | i | -1.5
COC(=O)c1sccc1NC(=O)c1c(C)cc(=O)oc1C | 2.2% | i | 0.13
O=C(Nc1cnc2ccccc2c1)c1ccncc1 | -0.3% | i | 0.23
O=C(c1ccco1)N1CCN(C(=O)C2CCN(S(=O)(=O)c3cccc4nsnc34)CC2)CC1 | 0.9% | i | -1.1
CCOc1cc(CO)cc(Br)c1OCC(=O)O | 7.4% | i | .
CC1CCN(c2ccc(NC(=O)c3cccnc3)cc2)CC1 | 2.0% | i | -0.04
CC1CCN(C(c2cc3cc4c(cc3[nH]c2=O)OCO4)c2nnnn2CC2CCCO2)CC1 (stereo unspecified) | -2.3% | i | 1.7
COc1ccccc1OCCNC(=O)c1cccs1 | -0.7% | i | -0.25
Cc1c(NC2=NC(C)(C)Cc3ccccc32)c(=O)n(-c2ccccc2)n1C | -0.6% | i | .
CC1(C)CC(=O)C2=C(C1)N(Cc1ccc(F)cc1)C(=O)C2(NC(=O)c1cccnc1)C(F)(F)F (stereo unspecified) | -0.7% | i | .
CCOC(=O)N1CCN(S(=O)(=O)c2ccc(C(=O)Nc3nc4c(s3)CC(C)CC4)cc2)CC1 (stereo unspecified) | -6.8% | i | 0.74
CCOc1ccccc1-n1c(SCC(=O)N(CC)CC)nnc1-c1ccccn1 | -1.7% | i | -1.2
CCOc1ccc(N2C(=O)CC(/C=C3/N(C)c4ccccc4C3(C)C)C2=O)cc1 (stereo unspecified) | -2.9% | i | -0.49
Cc1ccc(Oc2ccc(NC(=O)c3ccco3)cc2)cc1 | -4.6% | i | -0.79
Cc1ccc(SCc2cc(=O)[nH]c(N3CCN(Cc4ccccc4)CC3)n2)cc1 | 0.5% | i | -0.62
CCc1ccc(C2CC(c3ccccc3Cl)Nc3nc(N)nn32)cc1 (stereo unspecified) | 4.9% | i | -0.89
Cc1ccc(-c2csc(NC(=O)CSc3nc(C)cs3)n2)cc1 | -0.2% | i | .
CCOC(=O)c1c(NC(=S)Nc2ccccc2)sc(C)c1C | 6.9% | i | .
Cc1ccc(C(=O)C(C)OC(=O)C2=COCCO2)cc1C (stereo unspecified) | -1.7% | i | -0.49
O=C(CCCSc1nc2ccccc2s1)NCc1ccco1 | -4.3% | i | -0.55
COc1cc(C2C(C(=O)c3ccc(C)o3)=C(O)C(=O)N2c2cc(C)on2)cc(Br)c1O (stereo unspecified) | 2.0% | i | 0.15
Cc1scc(C(=O)Nn2cnnc2)c1-c1ccccc1 | -6.5% | i | -0.17
Oc1ccc(CN2CCc3ccccc3C2)c2cccnc12 | -7.2% | i | .
Cc1sc2ncnc(SCC(=O)N3CCCC3)c2c1C | 2.1% | i | -0.26
CCOC(=O)N1CCc2c(sc(NC(C)=O)c2C(N)=O)C1 | 3.2% | i | 0.06
Cn1nc(C(=O)NC2CCCCC2)c2ccccc2c1=O | -0.7% | i | -0.91
O=C(Nc1ccc2[nH]c3c(c2c1)CCCC3)c1ccco1 | 24% | i | -1
COc1ccc(C(C(=O)NC(C)(C)C)N(Cc2ccco2)C(=O)CCC(=O)Nc2cc(C)on2)cc1 (stereo unspecified) | 1.0% | i | -1.1
O=C(c1ccc(CNS(=O)(=O)c2ccccc2)cc1)N1CCN(c2ccccn2)CC1 | -0.9% | i | -0.08
Cc1ccc2cc(CN(C)C(=O)C3CCCO3)c(=O)[nH]c2c1 (stereo unspecified) | 1.0% | i | -0.2
O=C(Nc1ccc2nc(-c3ccccc3)oc2c1)c1ccco1 | -0.6% | i | 0.12
CCc1ccc2[nH]c(=O)c(CN(CCCN3CCOCC3)C(=O)Nc3cccc(Cl)c3)cc2c1 | 4.8% | i | 0.79
Cc1cc(N2C(=O)C(O)=C(C(=O)c3ccco3)C2c2ccc(O)cc2)no1 (stereo unspecified) | -1.2% | i | .
Cc1ccc(Cl)cc1N1CCN(C(=O)c2ccc(NS(=O)(=O)c3c(C)noc3C)cc2)CC1 | -9.1% | i | -0.16
Cc1ccc(S(=O)(=O)N2CCN(C3CCN(Cc4ccccc4)CC3)CC2)cc1 | 11% | i | 1.1
CCC1(C)N=C(c2ccc3c(c2)OCO3)CC(c2ccccc2O)N1 (stereo unspecified) | -2.2% | i | .
CCc1cc(=O)oc2cc(C)cc(OCc3nn[nH]n3)c12 | -0.6% | i | 0.52
Cc1cc(=O)n2nc(N3CCCC(C(=O)NCCCN4CCc5ccccc5C4)C3)sc2n1 (stereo unspecified) | 3.0% | i | -0.14

Copied from above (four entries):
SMILES | Hsc70 ATP site | MT1-MMP reporter | WNV NS2B-NS3 inh
O=C(Nc1ccc2nc(-c3ccccc3)oc2c1)c1ccco1 | -0.6% | i | 0.12
CCc1ccc2[nH]c(=O)c(CN(CCCN3CCOCC3)C(=O)Nc3cccc(Cl)c3)cc2c1 | 4.8% | i | 0.79
Cc1cc(N2C(=O)C(O)=C(C(=O)c3ccco3)C2c2ccc(O)cc2)no1 (stereo unspecified) | -1.2% | i | .
Cc1ccc(Cl)cc1N1CCN(C(=O)c2ccc(NS(=O)(=O)c3c(C)noc3C)cc2)CC1 | -9.1% | i | -0.16

The listing continues.
SMILES | Hsc70 ATP site | MT1-MMP reporter | WNV NS2B-NS3 inh
COC(=O)c1cc(OC)c(OC)cc1NC(=O)CSc1nnnn1Cc1ccccc1 | -17% | i | -0.53
O=C1C(Cl)=C(N2CCCCC2)C(=O)N1c1ccccc1Cl | -1.5% | i | -0.02
COc1ccccc1NC(=O)N1c2ccc(F)cc2CCC1C (stereo unspecified) | 1.9% | i | -0.57
O=C(Nc1ccc(Oc2ncccn2)cc1)c1ccco1 | 1.0% | i | 0.29
CCCCOC(=O)c1ccc(NC(=O)c2ccoc2C)cc1 | 1.1% | i | 0.3
CNCCCOc1ccc(C)cc1Br | -2.7% | i | .
CSc1ccc(C2NC(=O)c3c(sc4c3CCN(C)C4)N2)cc1 (stereo unspecified) | 6.3% | i | 0.58
O=C(Cn1nc(-c2ccc(Cl)cc2)ccc1=O)N1CCN(c2ccccc2)CC1 | 0.8% | i | 0.2
Cc1cc(=O)[nH]c(SCCOc2ccc3c(c2)CCC3)n1 | -4.1% | i | -0.12
CCOC(=O)N1CCN(C(=O)CSc2nc3c([nH]c4ccccc43)c(=O)n2C)CC1 | -3.4% | i | -0.67
Cc1ccc(-c2nc(NCCN3CCOCC3)c3ccccc3n2)cc1 | 0.6% | i | -0.84
COc1ccc(S(=O)(=O)N(C)c2ccc(C(N)=O)cc2)cc1 | 2.2% | i | .

Of the compounds above, these contain a thiophene ring, fused or not.
SMILES | Hsc70 ATP site | MT1-MMP reporter | WNV NS2B-NS3 inh
CCCc1cc(C(=O)N2CCN(S(=O)(=O)c3ccc(OC)c(OC)c3)CC2)cs1 | 5.0% | i | 0.37
COC(=O)c1sccc1NC(=O)c1c(C)cc(=O)oc1C | 2.2% | i | 0.13
COc1ccccc1OCCNC(=O)c1cccs1 | -0.7% | i | -0.25
CCOC(=O)c1c(NC(=S)Nc2ccccc2)sc(C)c1C | 6.9% | i | .
Cc1scc(C(=O)Nn2cnnc2)c1-c1ccccc1 | -6.5% | i | -0.17
Cc1sc2ncnc(SCC(=O)N3CCCC3)c2c1C | 2.1% | i | -0.26
CCOC(=O)N1CCc2c(sc(NC(C)=O)c2C(N)=O)C1 | 3.2% | i | 0.06
CSc1ccc(C2NC(=O)c3c(sc4c3CCN(C)C4)N2)cc1 (stereo unspecified) | 6.3% | i | 0.58

The list continues:
SMILES | Hsc70 ATP site | MT1-MMP reporter | WNV NS2B-NS3 inh
CC(C(=O)N1CCc2ccccc21)n1cccc1 (stereo unspecified) | -2.1% | i | .
CCOC(=O)N1CCN(C(=O)CCSc2ccccc2)CC1 | -0.7% | i | -0.11
CCC(C)N1C(=O)CCC1C(=O)O (stereo unspecified) | 6.3% | i | .
Cc1sc2ncn(CC(=O)OCC(=O)NC(C)(C)C)c(=O)c2c1C | 0.7% | i | -0.17
CCCn1nnc(NC(=O)C(C)Oc2ccc(Cl)cc2Cl)n1 (stereo unspecified) | 1.5% | i | -0.5
CCOc1ccc(C(=O)COc2ccc(NC(C)=O)cc2)cc1 | -1.4% | i | .
CCCSc1nc(N2CCOCC2)c2c(c1C#N)CC(C)(C)SC2 | -1.1% | i | .
COCCOC(=O)c1c(C)nc(SCC(=O)Nc2ccc(C)cc2)c(C#N)c1-c1ccco1 | -8.8% | i | -0.26
CCOC(=O)C(C)n1cnc2c(nnn2Cc2ccc(C)cc2)c1=O (stereo unspecified) | 5.5% | i | 1
Cc1nn(C)c(C)c1S(=O)(=O)NC1CCCC1 | -4.1% | i | 0.79
O=C(O)c1ccc(NS(=O)(=O)c2cc(Cl)ccc2Cl)cc1 | -2.6% | i | 0.13
O=C(c1cccc(F)c1)N1CCN(CC2CC3C=CC2C3)CC1 (stereo unspecified) | -1.0% | i | -2
COC(=O)c1ccccc1NC(=O)C1CCN(C(=O)c2cc(OC)c(OC)c(OC)c2)CC1 | -5.4% | i | .
Clc1ccc(OCc2nnc(SCc3nnc(-c4ccccc4)o3)o2)c(Cl)c1 | -4.1% | i | 1.4
Cc1ccc(S(=O)(=O)N2CCN(C(=O)CSc3nnc(C)s3)C2)cc1 | -0.9% | i | -1.2
CC(C)NC(=O)C(=O)NCCc1ccc(Cl)cc1 | 3.6% | i | .
c1ccc2nc3c(cc2c1)CCCCCC3 | 4.3% | i | .
COC(=O)c1cc2oc(C)cc2n1CC(=O)Nc1ccc(C)c(C)c1 | -7.2% | i | -2
Cc1[nH]c2ccc(CNS(=O)(=O)c3ccc(S(=O)(=O)N4CCOCC4)cc3)cc2c1C | -16% | i | -0.55
O=C(Nc1ccc2c(c1)OCCO2)C1CCN(S(=O)(=O)c2cccc3nsnc23)CC1 | 3.9% | i | -1.9
CCOC(=O)COn1c(=O)c(-c2cccs2)[n+]([O-])c2ccccc21 | 48% | i | -1.1
CCc1nc2sc3c(c2c(=O)n1N)CCC3 | -4.7% | i | -0.4
CCN(CC)CCCn1c(C)cc2c(c1=O)C(c1cc(OC)c(OC)cc1OC)C(C#N)=C(N)O2 (stereo unspecified) | 0.2% | i | 0.58
CCCn1c(NCc2cc(C)ccc2O)nc2ccccc21 | 0.1% | i | 2.1
CC(C)(C)c1cn(-c2ccc(F)cc2)c(=S)[nH]1 | 2.7% | i | .
O=c1c(C(c2nnnn2C2CCCCC2)N2CCCCC2)coc2ccc(Cl)cc12 (stereo unspecified) | -5.3% | i | -0.9
C[C@H](NC(=O)NC1CCCc2ccccc21)C(=O)O (stereo partly specified) | 0.8% | i | .
O=C(Cc1c[nH]c2ccccc12)Nc1nc2ccccc2[nH]1 | -13% | i | -0.18
N#Cc1sc2nc3c(c(-c4ccco4)c2c1N)CCCC3 | 7.3% | i | -0.59
Cc1cccc(C)c1OCC(O)CNC(C)(C)C (stereo unspecified) | -0.3% | i | .
COc1ccc(C)cc1N(CC(N)=O)S(=O)(=O)c1ccc(C)cc1 | -1.7% | i | -0.48
COc1ccc2[nH]c3ccccc3c2c1 | 5.7% | i | -1
COc1ccc(N2CCN(C(=O)CCNS(=O)(=O)c3ccc(Br)s3)CC2)cc1 | -6.2% | i | -0.5
COc1ccc(-n2c(=O)cc(N3CCN(c4ccccc4)CC3)[nH]c2=O)cc1 | 2.2% | i | -0.13
CCOC(=O)C1(Cc2ccccc2)NC(c2ccccc2F)C2C(=O)N(CC)C(=O)C21 (stereo unspecified) | -2.6% | i | -0.11
COC(=O)Cc1cnc(NC(=O)C2C3CCC(C3)C2C(=O)O)s1 (stereo unspecified) | -0.9% | i | -0.07
CCOC(=O)CCN(Cc1cccs1)S(=O)(=O)c1ccc(F)cc1 | -1.6% | i | 0.39
[O-]/[N+](=C\c1ccc(OC(F)F)cc1)c1ccccc1 | -2.8% | i | -0.8
Cn1c(CSCc2ccc(Cl)cc2)nnc1SCC(=O)Nc1nc2ccccc2s1 | -2.6% | i | .
CC1(C)CC(=O)C2=C(C1)NC(=O)CC2c1cc(F)ccc1F (stereo unspecified) | 7.2% | i | -0.22
O=C(Cn1nc(C(F)(F)F)c2c1CCCCC2)N1CCOCC1 | 8.9% | i | -0.22
Cc1cc(C)c(C)c(C(=O)CSc2nnc(-c3ccc4[nH]c(C)c(C)c4c3)o2)c1C | 5.2% | i | .
O=C(C1CCCN1C(=O)c1cccs1)N1CCc2ccccc21 (stereo unspecified) | 3.6% | i | -1.4
